Screens (PubChem BioAssay)
Mtb growth: M. tuberculosis H37Rv growth inhibitors, H37Rv strain (AID 1626); M. tuberculosis H37Rv growth inhibition; higher % means a stronger effect; inhibition, % at 10 µM; hits with a dose series show IC50 in µM; 220,000 tested, 0.95% active;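 active = confirmed in a dose series; inconclusive = inhibition above 80% but not taken into the dose series; inactive = below 80% or under 30% at every dose of the series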;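 also: bacteria incubated seven days before Alamar blue readout; 0% = bacteria only wells and 100% = bacteria with antibiotic wells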
Mtb bLac sens: beta-lactam sensitization of Mtb H37Rv; 330,000 tested, 0.27% active; AID 434955; inhibition, % at 25 µM; M. tuberculosis H37Rv growth with meropenem, percent inhibition; hits of this screen are not shown here;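 active = about 74% or more and at least 40 points above the plate without the antibiotic, then above 30% in a dose series; inconclusive = first-round hits that could not be retested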;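 also: growth measured after seven days incubation then overnight dye step; 0% = bacteria only wells and 100% = bacteria with antibiotic; twin plates without the antibiotic show which effects depend on it; some results filed as inactive read as strong as hits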
YopH PTP inh: inhibitors of Yersinia enterocolitica YopH tyrosine phosphatase; 140,000 tested, 0.16% active; fluorescence Ex485/Em525; inhibition, %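 (about 10 µM by stock and volumes)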;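 active = inhibition of 50% or more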;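 also: controls were vehicle for no effect and minimum signal wells for full effect; inactives centre near -20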
Arbovirus anti: blocks arbovirus infection | arbovirus infection cell-based antiviral screen | inhibition, % at 10 µM | 200,000 tested, 0.37% active;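 active = inhibition from about 30%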;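 also: bluetongue infection of BSR cells; cell survival read as ATP light after 72 h; 0% = infected wells without compound and 100% = uninfected wells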
RecA splice inh: blocks M. tuberculosis RecA intein splicing; P9WHJ3; cell-free RecA intein splicing, fluorescence; inhibition, %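 (about 9 µM by stock and volumes)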; 290,000 tested, 0.75% active; AID 2221; in the data active = inhibition above about 30%; inconclusive = no clear call, values can overlap the other calls;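 also: 0% = vehicle wells and 100% = reference inhibitor control wells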
Target sequence (P9WHJ3 whole entry, looked up, canonical isoform): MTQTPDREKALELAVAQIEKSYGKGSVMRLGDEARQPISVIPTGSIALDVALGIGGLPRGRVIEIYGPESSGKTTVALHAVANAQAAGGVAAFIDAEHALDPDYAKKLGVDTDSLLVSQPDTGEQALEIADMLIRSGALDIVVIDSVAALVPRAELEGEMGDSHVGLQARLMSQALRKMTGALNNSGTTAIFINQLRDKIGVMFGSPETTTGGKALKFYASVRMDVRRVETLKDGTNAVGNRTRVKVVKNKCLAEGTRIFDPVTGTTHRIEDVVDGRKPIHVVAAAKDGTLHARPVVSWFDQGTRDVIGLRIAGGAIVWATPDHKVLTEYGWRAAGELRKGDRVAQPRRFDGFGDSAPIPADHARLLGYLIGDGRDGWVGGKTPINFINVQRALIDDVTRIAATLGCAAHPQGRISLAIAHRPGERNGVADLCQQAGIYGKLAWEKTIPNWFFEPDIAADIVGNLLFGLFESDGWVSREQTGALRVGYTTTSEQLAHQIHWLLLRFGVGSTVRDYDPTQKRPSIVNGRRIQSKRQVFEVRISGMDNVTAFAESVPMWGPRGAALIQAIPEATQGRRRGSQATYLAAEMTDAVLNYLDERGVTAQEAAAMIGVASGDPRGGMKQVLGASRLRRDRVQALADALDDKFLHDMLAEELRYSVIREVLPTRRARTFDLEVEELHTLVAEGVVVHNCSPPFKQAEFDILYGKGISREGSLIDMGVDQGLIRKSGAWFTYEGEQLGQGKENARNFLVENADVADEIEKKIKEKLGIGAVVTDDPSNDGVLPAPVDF
Arbovirus anti repeat: also measured in Arbovirus anti; calls as there; inhibition, %; measured here: 10K subset replicate screen; many hits read low in the repeat;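 first of two repeat runs on a subset; 0% = infected and 100% = uninfected wells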
The depositor's hits bear a star; ? = inconclusive; · = not tested or not shown; & = joins results of further samples. An excerpt (hit frequency here may not be typical).

SMILES | Mtb growth | Mtb bLac sens | YopH PTP inh | Arbovirus anti | RecA splice inh | others
CC1(C)NC(=O)[C@H]2CCCN21 | -6.4% | -6.6 | · | · | -0.9
O=C(O)/C=C/C(=O)Nc1ccc(C(=O)c2ccccc2)cc1 | -9.9% | 5.1 | · | 0.5 | 5.3
COc1ccc(NC(=S)Nn2cnnc2)c(OC)c1 | · | 0.9 | · | · | -0.5
O=C(Cn1nc(-c2ccccc2)ccc1=O)NCCCN1CCOCC1 | -3.3% | -3.6 | · | · | 2.1
O=S(=O)(Cc1ccccc1)Nc1ccccc1Br | · | 0.0 | · | · | 0.6
CCC(CC)c1nnc(NC(=O)C2CC(=O)N(C3CCCC3)C2)s1 (stereo unspecified) | · | 2.3 | · | · | 0.6
COCCN(C(=S)Nc1cccc(OC)c1)C1CCN(C(C)C)CC1 | -1.9% | -5.8 | -20.4 | -4.9 | -3.3
O=C(Nc1ccccc1)N1CCSc2ccccc21 | 8.3% | 5.4 | · | 0.8 | 1.7
Cc1cc(NS(=O)(=O)c2ccccc2)no1 | 1.9% | -5.1 | -3.4 | 0.7 | -3.5 | Arbovirus anti repeat=7.6
COC(=O)C1=C(C)NC(=O)NC1c1ccc(OC(=O)c2ccco2)cc1 (stereo unspecified) | 3.9% | -2.4 | · | -2.4 | 9.4
CC(=O)N1CC(=O)Nc2ccc(Br)cc2C1c1ccc(F)cc1 (stereo unspecified) | · | -9.3 | · | · | 0.4
Cc1ccc(C(=O)O)cc1-c1ccc(/C=C2/NC(=O)N(c3ccccc3)C2=O)o1 | -0.6% | 16.8 | -21.6 | 39.9* | -64.0
Cc1ccc(NS(=O)(=O)c2ccc(C(=O)OCC(=O)Nc3cc(C)on3)cc2)cc1 | -1.6% | · | · | 6.0 | -0.9
COc1ccc(C)cc1NC(=O)CN1C(=O)COc2ccc(S(=O)(=O)N3CCCCCC3)cc21 | · | 2.6 | · | · | -0.7
CCCCN(CCNP(=O)(OCC)OCC)CP(=O)(OCC)OCC | -3.6% | -7.1 | -33.3 | 6.8 | -0.4
CCOC(=O)C(=O)N1CCC(Cc2ccccc2)CC1 | -1.8% | -5.1 | · | 3.5 | -3.5
CCN(CC)CCNC(=O)C1(O)c2cc(Br)ccc2NC(=O)N1c1c(F)cccc1F (stereo unspecified) | · | -7.8 | · | · | -0.1
Cc1ccc(C(=O)NCc2ccc(F)cc2)cc1NC1=NC2CS(=O)(=O)CC2S1 (stereo unspecified) | · | -2.6 | · | · | -0.1
Cc1cccc(Cn2cnc3c(sc4nc(C)cc(C)c43)c2=O)c1 | · | -0.1 | · | · | -0.3
COc1cc(/C=C2/C(=O)ON=C2C)ccc1OCc1cccc(F)c1 | 3.6% | 14.2 | · | -15.7 | -2.7
COc1cccc(C(=O)NCCC2=CCCCC2)c1 | 7.6% | 2.4 | -13.3 | -5.1 | 0.8
CC(=O)Oc1ccc(N2C(=O)C3C4C=CC(CC4)C3C2=O)cc1[N+](=O)[O-] (stereo unspecified) | -2.0% | -0.8 | · | 3.4 | -0.5
CCN(CC)C(=O)CC(c1ccc(F)cc1)c1ccco1 (stereo unspecified) | 1.9% | 21.1 | 34.1 | 2.6 | 3.8
O=C(O)c1cccc(Cn2c(Cl)c(/C=N/NC(=O)c3ccccc3Cl)sc2=O)c1 | · | -19.6 | -21.6 | 4.9 | 2.6
C=CCN(CC=C)C(=O)c1cc2ccccc2c(=O)o1 | 4.6% | -10.7 | 1.1 | -1.9 | -0.2
C#CCSc1nnc(CNS(=O)(=O)c2ccc(Br)cc2)n1C | · | 0.3 | · | · | 0.4
COc1ccc(N2CCN(CCNC(=O)c3ccc(NC(=O)C4CCCO4)cc3)CC2)cc1 (stereo unspecified) | -4.7% | -4.8 | -32.4 | 5.7 | · | Arbovirus anti repeat=0.2
NC(=O)NC(=O)CSc1nc2sc(-c3ccccc3)cc2c(=O)n1-c1ccccc1 | 4.9% | 0.3 | · | -6.9 | -0.3
COc1ccc2nc(SCC(=O)NCc3ccc(F)cc3)[nH]c2c1 | · | 0.0 | · | · | -0.6
COc1ccc(OCC(=O)Nc2nonc2NC(=O)COc2ccc(OC)cc2)cc1 | 5.8% | -2.9 | · | -3.5 | 2.8
CC(C)CNC(=O)/C=C/C(=O)O | -7.4%&-0.2% | -5.8 | · | 1.2 | 0.1
COC(=O)C(=N/Nc1ccccc1C(=O)OC)/C(C)=N/O | -10.5% | -2.9 | · | · | 1.0
Cc1cccc(C)c1NC(=O)C(=O)NCCOc1ccc(Cl)cc1 | -12.6% | 28.4 | -22.2 | 3.0 | -3.3
Cc1ccc(-c2noc(CN3CCCCC3)n2)cc1 | -6.6% | 6.2 | -13.3 | 5.7 | 3.1
O=Cc1c(NCc2ccco2)nc2ccccn2c1=O | 7.9% | 63.1 | · | 7.5 | -2.8
COc1cc(C(=O)OCC(=O)N(C)C)cc(NC(=O)c2ccco2)c1OC | -2.7% | 5.5 | -32.0 | -1.0 | 0.6
CCOC(=O)c1[nH]c(C)c(C(=O)Nc2ccccc2C)c1C | -1.7% | ? | -25.8 | -8.0 | 1.8
CN(C)CCCOC(=O)C1c2ccccc2Oc2ccccc21 | -5.0% | -5.0 | -59.4 | -0.7 | 6.0
CSc1ncc(Cl)c(C(=O)Nc2ccc(NC(C)=O)cc2)n1 | -5.0% | -9.4 | · | -0.9 | -0.1
CCc1cccc(CC)c1NC(=O)CO/N=C(\N)CC(=O)NC1CCCCC1 | -1.7% | -4.6 | · | -0.5 | -2.2
CCc1c(C(=O)NCc2ccc3c(c2)OCO3)[nH]c(C)c1C(C)=O | -9.4% | ? | -16.2 | -1.2 | -1.5
COc1ccc(Cc2noc(CN3CCC(c4ccncc4)CC3)n2)cc1OC | 2.6% | -3.5 | · | 14.3 | 0.4
O=C(Nc1ccc(O)cc1C(=O)O)c1cccs1 | -2.9% | -9.5 | · | 1.5 | -5.0
COc1ccc(C2CC(c3c(-c4ccccc4)c4cc(Cl)ccc4[nH]c3=O)=NN2C(=O)CCC(=O)O)cc1 (stereo unspecified) | -5.2% | 7.8 | · | 17.8 | 14.7
Cc1cc(C(N)=O)nn1-c1c(Cl)cc(Cl)cc1Cl | -0.6% | 32.4 | · | · | 0.0
CCOC(=O)Cc1csc(NC(=O)CC)n1 | -0.6% | -0.5 | 5.2 | 2.4 | 0.9
Cc1ccc(N2CCN(C(=O)c3ccccc3F)CC2)c(C)c1 | 9.4% | 2.0 | -9.9 | -3.9 | 11.8 | Arbovirus anti repeat=-1.3
COc1cc(C(c2sc3nc(C)nn3c2O)N2CCC3(CC2)OCCO3)cc(OC)c1OC (stereo unspecified) | 0.4% | -2.5 | -47.7 | -2.2 | ·
COC(=O)c1ccc(C2C(C(C)=O)=C(O)C(=O)N2CCO)cc1 (stereo unspecified) | -2.0% | -3.7 | -23.2 | 1.0 | -2.2
O=C(CCN1CCN(S(=O)(=O)c2ccc(Cl)cc2)CC1)Nc1ccccc1F | 1.4% | 12.3 | · | 2.6 | 11.8

In the list so far, six contain a Cl atom.
SMILES | Mtb growth | Mtb bLac sens | YopH PTP inh | Arbovirus anti | RecA splice inh | others
O=C(O)c1cccc(Cn2c(Cl)c(/C=N/NC(=O)c3ccccc3Cl)sc2=O)c1 | · | -19.6 | -21.6 | 4.9 | 2.6
Cc1cccc(C)c1NC(=O)C(=O)NCCOc1ccc(Cl)cc1 | -12.6% | 28.4 | -22.2 | 3.0 | -3.3
CSc1ncc(Cl)c(C(=O)Nc2ccc(NC(C)=O)cc2)n1 | -5.0% | -9.4 | · | -0.9 | -0.1
COc1ccc(C2CC(c3c(-c4ccccc4)c4cc(Cl)ccc4[nH]c3=O)=NN2C(=O)CCC(=O)O)cc1 (stereo unspecified) | -5.2% | 7.8 | · | 17.8 | 14.7
Cc1cc(C(N)=O)nn1-c1c(Cl)cc(Cl)cc1Cl | -0.6% | 32.4 | · | · | 0.0
O=C(CCN1CCN(S(=O)(=O)c2ccc(Cl)cc2)CC1)Nc1ccccc1F | 1.4% | 12.3 | · | 2.6 | 11.8

Other entries follow:
SMILES | Mtb growth | Mtb bLac sens | YopH PTP inh | Arbovirus anti | RecA splice inh | others
Cc1cccc(NC(=O)NCc2cccnc2)c1C | · | -14.5 | · | · | 2.2
Cc1cc(Oc2ccc(C(F)(F)F)cc2[N+](=O)[O-])c2c3c(c(=O)oc2c1)CCC3 | -6.3% | 6.7 | -15.4 | -0.7 | -0.3
CCCc1nnc(NC(=O)CCC(=O)N2CCN(CCn3c(C)ccc3C)CC2)s1 | 3.4% | 5.7 | -0.9 | 6.7 | -0.4
COc1ccc(S(=O)(=O)N2CCN(C(=O)NCc3ccc(C)cc3)CC2)cc1 | · | 0.1 | · | · | -0.8
Cc1ccc([N+](=O)[O-])cc1N=C1C(=O)Nc2ccccc21 | · | -1.8 | · | · | -0.7
COc1ccc2nc(SCC(=O)Nc3ccccc3OC)[nH]c2c1 | 18.5% | 14.0 | · | · | 0.6
CC(O)c1nc2ccccc2n1Cc1ccccc1 (stereo unspecified) | · | -6.5 | · | · | -2.3
O=S1(=O)CCC(=Nc2ccc(Cl)cc2)c2ccsc21 | 3.6% | -3.4 | · | -8.4 | 7.5
COc1cc(C(=O)N2CCN(c3ccccn3)CC2)cc(OC)c1OC | · | -3.4 | · | · | -0.9
CN(C(=O)CN1CC=C(c2ccccc2)CC1)c1c(N)n(Cc2ccccc2)c(=O)[nH]c1=O | -3.0% | 3.5 | · | -0.6 | 1.0
CC(=O)N1c2ccc(S(=O)(=O)NCCC(=O)NCc3ccc(Cl)cc3)cc2CC1C (stereo unspecified) | · | 0.0 | · | · | -1.9
Cc1ccc(/C=C(/C#N)C(=O)NC(C)c2ccccc2)o1 (stereo unspecified) | 5.5% | 0.7 | -8.9 | -1.0 | 0.7
O=C(Nc1ccnn1C1CCN(Cc2ccccc2OC(F)F)CC1)c1cccnc1 | · | -12.7 | · | · | 1.0
O=C(Nc1ccncc1)C1CC1c1ccccc1 (stereo unspecified) | 3.3% | -1.3 | -11.9 | 8.0 | 4.2
COc1ccc(C2=Nc3nc(-c4ccccc4)cn3C(c3ccc(OC)cc3)C2)cc1 (stereo unspecified) | 66.4% | · | 18.4 | 23.6 | -41.7
O=C(O)c1cccc(NC(=O)c2cccc(S(=O)(=O)Nc3cccc([N+](=O)[O-])c3)c2)c1 | · | -5.0 | · | · | -3.0
Cc1cc(NS(=O)(=O)c2ccc(NC(=O)CN3C(=O)NC(C)(c4ccccc4)C3=O)cc2)nc(C)n1 (stereo unspecified) | · | -4.2 | · | · | -0.5
O=C(CN1CCN(Cc2ccc3c(c2)OCO3)CC1)NCC(F)(F)F | · | -3.5 | · | · | 0.3
CCc1nnc(NC(=O)CSc2nc3cc(OC)c(OC)cc3cc2C)s1 | -1.5% | -7.5 | · | 1.3 | 3.6
CCC(C)(C)c1ccc(OCCCC[n+]2ccccc2)c(C(C)(C)CC)c1 | ? | 99.6 | · | -23.2 | 8.4
Clc1ccc(Cc2nc(-c3cccnc3)no2)cc1 | 2.7% | 2.3 | -37.2 | -17.4 | 0.5
Cc1ccnc(NC(=O)COc2ccc3c(c2)CCC3)c1 | · | 30.1 | · | · | -1.5
COc1ccccc1NC1=NC(CO)(CO)CS1 | -7.7% | -11.2 | · | · | -4.2
c1ccc(CSc2ccc(-c3ccco3)nn2)cc1 | -0.6% | 1.9 | -24.7 | -3.6 | 9.9
CN(Cc1ccccc1)C(=O)N[C@@H](Cc1ccccc1)C(=O)O | -4.6% | -5.8 | -31.7 | -4.0 | 0.1

Grouped by structure, those above with a thiophene ring, fused or not.
SMILES | Mtb growth | Mtb bLac sens | YopH PTP inh | Arbovirus anti | RecA splice inh | others
Cc1cccc(Cn2cnc3c(sc4nc(C)cc(C)c43)c2=O)c1 | · | -0.1 | · | · | -0.3
NC(=O)NC(=O)CSc1nc2sc(-c3ccccc3)cc2c(=O)n1-c1ccccc1 | 4.9% | 0.3 | · | -6.9 | -0.3
O=C(Nc1ccc(O)cc1C(=O)O)c1cccs1 | -2.9% | -9.5 | · | 1.5 | -5.0
O=S1(=O)CCC(=Nc2ccc(Cl)cc2)c2ccsc21 | 3.6% | -3.4 | · | -8.4 | 7.5
